# Screens (PubChem)
# eIF4H inh – inhibitors of RNA binding by human eIF4H; Q15056; eIF4H fluorescence polarization binding assay; inhibition, % at 35 µM; 290,000 tested, 0.94% active;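 active = 50% or more with normal probe brightness, or confirmed in later tests; inconclusive = above 50% with abnormal brightness, or retests that disagree; inactive = below 50% or failed in later tests; about a fifth of its hits are not listed in these tables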;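 note: calls also rest on retests at 20 µM and on dose response follow-up; 0% = protein and probe with vehicle and 100% = probe without protein; strong numbers were not always called active; many hits fall short of the cut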
# UUG fidelity – alters start codon recognition fidelity in yeast; AID 602363; 350,000 tested, 0.13% active; activity score, % at 18.7 µM; S. cerevisiae UUG-firefly luciferase reporter, luminescence/redox ratio;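 active = replicate mean at a twofold rise or more, about +100% in these data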;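 note: firefly luciferase made from a UUG start codon reports start codon fidelity; reporter light over untreated wells divided by growth signal over untreated wells; some hits fall short of that in this replicate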
# HIV Env fusion – HIV envelope-mediated fusion inhibition; HeLa-JRFL Env/CEM21 cell fusion, luciferase; inhibition, % at 12.3 µM; 360,000 tested, 1.1% active;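 active = mean replicate inhibition score of at least 50 and every replicate individually at or above 50; inconclusive = only one of the two criteria met; inactive = mean below 50 and not all replicates reaching 50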;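 note: 0% = plate neutral controls and 100% = maraviroc near 300 nM; one replicate is shown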
# CSC inhib – blocks cancer stem cells; inhibition, % at 7.5 µM; cancer stem cell-like cells viability, luminescence; 300,000 tested, 1.1% active;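 active = mean at 75% or more and at least half the replicates too; inconclusive = mean and replicates disagree; tested in HMLE shEcad cells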;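 note: 0% = median of negative and 100% = median of positive control wells; the first replicate is given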
# Rce1 inh – blocks yeast Ras-converting enzyme. Q03530. yeast membranes, quenched prenylated peptide cleavage fluorescence. calls only. 290,000 tested, 0.27% active;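 active = fall in fluorescence gain of 50% or more versus controls, with final raw signal at or below 3038400; inconclusive = same 50% fall but final raw signal above 3038400; inactive = fall in fluorescence gain under 50%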;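 note: plate controls were neutral control wells for no effect and wells lacking membranes for full effect; tested at 10 µM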
# PABP polyA inh – PABP-poly(A) binding inhibition. P11940. PABP-poly(A) RNA binding, fluorescence polarization. inhibition, % at 35 µM. 290,000 tested, 1% active. AID 2014;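 active = 50% or more with normal probe brightness, or confirmed in later tests; inconclusive = above 50% with abnormal brightness, or retests that disagree; inactive = below 50% or failed in later tests; about a fifth of its hits are not listed in these tables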;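 note: calls also rest on retests at 20 µM and on dose response follow-up; controls were probe without protein and protein plus probe with vehicle; some compounds called inactive have numbers as strong as hits; many hits fall short of the cut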
# Target sequence (P11940 whole entry, looked up): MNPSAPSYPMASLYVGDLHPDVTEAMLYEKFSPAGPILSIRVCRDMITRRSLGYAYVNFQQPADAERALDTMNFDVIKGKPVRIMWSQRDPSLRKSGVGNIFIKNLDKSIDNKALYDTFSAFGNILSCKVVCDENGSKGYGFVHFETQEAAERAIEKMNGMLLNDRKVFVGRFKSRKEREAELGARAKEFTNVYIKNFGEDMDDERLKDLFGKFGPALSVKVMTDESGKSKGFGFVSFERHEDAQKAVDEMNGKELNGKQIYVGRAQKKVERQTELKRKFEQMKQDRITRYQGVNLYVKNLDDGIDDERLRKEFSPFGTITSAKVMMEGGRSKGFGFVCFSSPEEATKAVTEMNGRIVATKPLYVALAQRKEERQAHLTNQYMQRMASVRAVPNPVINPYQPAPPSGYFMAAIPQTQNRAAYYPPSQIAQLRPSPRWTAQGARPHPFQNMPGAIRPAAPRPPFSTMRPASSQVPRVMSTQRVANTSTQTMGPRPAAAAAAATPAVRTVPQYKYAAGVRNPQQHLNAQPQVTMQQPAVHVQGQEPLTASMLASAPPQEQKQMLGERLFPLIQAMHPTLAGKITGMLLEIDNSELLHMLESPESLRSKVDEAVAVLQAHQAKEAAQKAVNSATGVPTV
# MT1-MMP act inh – MT1-MMP (human) activation inhibition | HT1080 RFP-PRO-GFP cells, GFP/RFP ratio fluorescence, overnight; percent of plate control window, DMSO zero | GFP/RFP ratio change, % at 20 µM | 360,000 tested, 0.061% active | AID 651647;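 active = GFP/RFP ratio change of at least 30% with cell ATP level not reduced by more than half and red fluorescence within 50% of control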; note: strong numbers were not always called active
#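 Assay system: RFP-PRO-GFP reporter HT1080 cells; read-out basis: GFP/RFP fluorescence ratio; benchmarks: DMSO wells and RFP-L50D-GFP cells; doses: 20 µM single dose, 1% DMSO; schedule: overnight cell settling, then overnight compound exposure, 37 °C, 5% CO2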
# eIF4H inh retest – also measured in eIF4H inh; calls as there; inhibition, %; compound at 20 µM; confirmation average;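 mean of two retest wells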
# PABP polyA inh retest – also measured in PABP polyA inh; calls as there; inhibition, %; compound at 20 µM; confirmation repeats;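 mean of two retest wells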
# MT1-MMP act inh RFP – further read-out of MT1-MMP act inh, marked with its call; RFP signal change, %; measured here: RFP expression control read;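 0 = vehicle wells; hits needed this value within 50% of zero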
# An asterisk follows results filed as active; i = inactive; ? = inconclusive; · = no result given; & = joins results of further samples.
SMILES,eIF4H inh,UUG fidelity,HIV Env fusion,CSC inhib,Rce1 inh,PABP polyA inh,MT1-MMP act inh,MT1-MMP act inh RFP,others
Cc1ccc(S(=O)(=O)NCCC(=O)NC2CCCCCC2)cc1,·,-4,13,·,·,·,1,1,
O=C1CSC(c2ccc(Cl)cc2)N1 (centres undefined),10,-19,-50,-5,i,-7,8,11,
Cc1ccc(Cn2c(CN3CCN(C(=O)c4ccco4)CC3)nc3c2c(=O)n(C)c(=O)n3C)cc1,-4,3,-64,3,i,2,4,2,
C[C@@H](C(=O)N1CCN(c2ccccc2)CC1)N1C(=O)C2CC=CCC2C1=O (some centres undefined),·,-3,·,-3,·,·,-3,6,
CCCCn1c(SCC(=O)NC(C)CC)nc2ccc(N3CCOCC3)cc2c1=O (centres undefined),3,-21,-38,-7,i,17,0,-1,
COC(=O)c1c(NC(=O)C2C3CCC(O3)C2C(=O)O)sc2c1CCCCCC2 (centres undefined),-3,·,·,-1,i,4,-3,3,
Cc1ccccc1NC(=S)NC(NC(=O)N(C)C)C(Cl)(Cl)Cl (centres undefined),-1,-11,-3,-10,i,-15,-1,-2,
Clc1ccccc1N1CCN(Cc2ccco2)CC1,-6,-17,-3,4,i,9,0,5,
Cc1ccccc1C(=O)N1CCN(c2ccc(NC(=O)c3cccnc3Cl)cc2)CC1,-4,·,18,-10,i,-5,-2,-9,
O=c1c(OC2OC(CO)C(O)C(O)C2OC2OC(CO)C(O)C(O)C2OC2OC(CO)C(O)C(O)C2O)c(-c2ccc(O)c(O)c2)oc2cc(O)cc(O)c12 (centres undefined),37,-1,·,-15,·,34,2,0,
CCOc1ccccc1NC(=O)C1CCCN1C(=O)c1cccs1 (centres undefined),·,-12,·,9,·,·,-1,1,
COc1cccc2cc(C(=O)NCc3ccccc3Cl)c(=O)oc12,-2,-14,4,-14,i,-1,-11,-5,
Cn1c(=S)[nH]c2scc(-c3cccs3)c2c1=O,2,·,-19,·,i,-2,2,5,
COc1cc(C(=O)N2CCN(S(=O)(=O)c3ccc(C)cc3C)CC2)ccc1OCC(=O)N1CCOCC1,·,7,8,·,·,·,3,-2,
N#C/C(=C/c1cccn1-c1cccc(C(=O)O)c1)c1ccc(Cl)cc1,80,·,10,11,i,34*,-3,-3,eIF4H inh retest=-8;PABP polyA inh retest=81*
O=C(O)c1ccc(S(=O)(=O)Nc2cccc(CP(=O)(c3ccccc3)c3ccccc3)c2)cc1,-4,-1,-8,-16,i,5,2,4,
CCC(C)N(CCNC(=O)c1ccc2c(c1)NC(=O)c1ccccc1S2)C1CCCCC1 (centres undefined),-2,1,79*,16,i,4,-5,-5,
CN(CC1CCCN(CCc2ccc(Cl)cc2)C1)C(=O)C(=O)c1ccco1 (centres undefined),8,-34,1,-3,i,3,3,0,
CCC(=O)Nc1ccc(C(=O)NNC(=O)c2ccc([N+](=O)[O-])cc2)cc1,-4,-17,-5,-4,i,6,-2,0,
CCOc1ccc(-c2n[nH]c(=S)o2)cc1,2,·,-16,15,i,-14,2,2,
O=c1oc2ccccc2c(NCc2ccccc2)c1[N+](=O)[O-],1,-15,·,-2,i,1,1,-3,
Nc1oc2ccccc2c(=O)c1-c1ccc2c(c1)OCO2,-10,-12,-1,-5,i,-8,-1,4,
N#C/C(=C\c1ccccc1)C(=O)NNS(=O)(=O)c1cccc([N+](=O)[O-])c1,·,-13,-6,·,·,·,2,1,
O=C(OCc1ccc([N+](=O)[O-])cc1)c1cnc(Cl)c(Cl)c1,-4,3,1,2,i,-5,-2,0,
COc1ccccc1C(=O)CSc1cccc[n+]1[O-],1,·,6,-9,i,-4,-2,-1,

# Of the compounds above, these contain four or more nitrogen atoms.
SMILES,eIF4H inh,UUG fidelity,HIV Env fusion,CSC inhib,Rce1 inh,PABP polyA inh,MT1-MMP act inh,MT1-MMP act inh RFP,others
Cc1ccc(Cn2c(CN3CCN(C(=O)c4ccco4)CC3)nc3c2c(=O)n(C)c(=O)n3C)cc1,-4,3,-64,3,i,2,4,2,
CCCCn1c(SCC(=O)NC(C)CC)nc2ccc(N3CCOCC3)cc2c1=O (centres undefined),3,-21,-38,-7,i,17,0,-1,
Cc1ccccc1NC(=S)NC(NC(=O)N(C)C)C(Cl)(Cl)Cl (centres undefined),-1,-11,-3,-10,i,-15,-1,-2,
Cc1ccccc1C(=O)N1CCN(c2ccc(NC(=O)c3cccnc3Cl)cc2)CC1,-4,·,18,-10,i,-5,-2,-9,
CCC(=O)Nc1ccc(C(=O)NNC(=O)c2ccc([N+](=O)[O-])cc2)cc1,-4,-17,-5,-4,i,6,-2,0,
N#C/C(=C\c1ccccc1)C(=O)NNS(=O)(=O)c1cccc([N+](=O)[O-])c1,·,-13,-6,·,·,·,2,1,

# Other compounds follow.
SMILES,eIF4H inh,UUG fidelity,HIV Env fusion,CSC inhib,Rce1 inh,PABP polyA inh,MT1-MMP act inh,MT1-MMP act inh RFP,others
CCN(CC)CCn1c(/N=C/c2ccc(OC)c(OC)c2)nc2ccccc21,·,-26,9,2,i,·,-4,-3,
COC(=O)c1ccc(C2=NOC(C)(c3sc(-c4ccc(Cl)cc4)nc3C)C2)cc1 (centres undefined),-13,-15,36,15,i,-3,6,-8,
CC(C)(C)c1ccc2c(c1)OC(C(=O)N/N=C/c1ccc([N+](=O)[O-])o1)CO2 (centres undefined),10,5,14,29,i,17,2,-6,
Cc1[nH]c2c(C)cccc2c(=O)c1Br,-6,-18,·,-10,i,-2,7,-1,
O=C1OC(c2ccccc2)c2ccc3ccccc3c21 (centres undefined),3,·,-8,11,i,-1,6,0,
CCOCCCNC(=O)c1ccc2c(c1)ncn2-c1cccc(C)c1,1,-5,-17,4,i,5,0,5,
Cc1cc(Br)ccc1NC(=S)NCCc1ccccc1,-9,-42,-6,-7,i,-4,1,2,
O=C(NC(=S)NCc1ccco1)c1cccc(Cl)c1,6,-20,-2,-2,·,-5,2,6,
C=CCNC(=O)N1CCCC(C(=O)c2cccc(Cl)c2)C1 (centres undefined),-6,·,4,-10,i,0,-2,0,
C[C@@H]1CCCCO[C@H](CN(C)Cc2ccc3c(c2)OCO3)[C@H](C)CN([C@@H](C)CO)C(=O)c2cc(NC(=O)c3ccccc3)ccc2O1,·,15&17,-130,·,·,·,-3,-4,
N#Cc1ccccc1NC(=O)CNc1cc(S(=O)(=O)N2CCOCC2)ccc1NCC1CCCO1 (centres undefined),·,-29,5,·,·,·,-4,3,
COc1cccc(OC)c1NC(=O)C1CCCN1C(=O)Nc1cccc(Cl)c1 (centres undefined),2,-12,14,-8,i,14,2,3,
Cc1ccc(C(=O)COC(=O)c2cn(-c3ccccc3)nc2-c2ccccc2)cc1[N+](=O)[O-],-5,·,4,?,i,-18,-5,-2,
COc1ccc(CNC(=O)C2CC(c3ccc(OC)cc3)=NO2)cc1 (centres undefined),-1,-30,-38,6,i,-4,6,5,
CCCn1c(SCC(=O)Nc2ccc(OC)cc2)nnc1-c1ccncc1,-6,-20,-67,-10,i,6,3,4,
CCOC(=O)c1c(C)c(C(=O)O)n(C)c1C,-6,-8,-95,-8,i,5,4,4,
Cc1cccc(OC(=O)n2c(=S)oc3cc(Cl)ccc32)c1,?,-11,-1,-12,·,86*,8,-3,PABP polyA inh retest=124*
C[C@H](CO)N1C[C@H](C)[C@@H](CN(C)C(=O)Nc2ccccc2)Oc2c(NC(=O)NC3CCCCC3)cccc2C1=O,·,23,-1,-2,·,·,1,4,
CC(=O)Nc1nc(-c2cc([N+](=O)[O-])cs2)cs1,-15,·,-2,-7,i,-14,3,-3,
COCCCNC(=S)NCCCNc1nc2cc3c(cc2cc1C#N)OCO3,21,-20,·,-5,i,-24,-3,1,
CSCCC(C(=O)Nc1c(C)cccc1C)N1CCN(C/C=C/c2ccccc2)CC1 (centres undefined),·,-8,16,·,·,·,3,1,
CCOc1ccc(NC(=O)CC2S/C(=N/N=C3CCCCCC3)NC2=O)cc1 (centres undefined),3,-25,-5,-5,i,5,2,-2,
COc1ccc(C(=O)CCN2CCCC(C)C2)cc1 (centres undefined),-16,1,6,17,i,-2,4,4,
Cc1cc(=O)n(C)c(=O)n1CC(=O)N1CCCCCC1,9,-2,-16,-4,i,5,0,1,
O=C(CCCC(=O)NCc1ccc(F)cc1)NCc1ccc(F)cc1,-9,·,17,-10,i,-12,2,0,
# More structures follow:
SMILES,eIF4H inh,UUG fidelity,HIV Env fusion,CSC inhib,Rce1 inh,PABP polyA inh,MT1-MMP act inh,MT1-MMP act inh RFP,others
CCCCOc1ccc(NC(=O)C2OC3OC(C)(C)OC3C3OC(C)(C)OC23)cc1 (centres undefined),-2,·,-2,2,i,3,2,-1,
Cc1nc(-c2ccccc2)sc1-c1nc(-c2ccccc2)ncc1S(=O)(=O)c1ccccc1,-15,5,-5,2,i,0,-7,-8,
Cc1cc(-c2ccc(S(=O)(=O)N3CCN(C)CC3)s2)on1,-8,-16,5,-16,i,-4,2,5,
Cc1noc(C(=O)Nc2c(C)nn(Cc3ccccc3)c2C)c1Cl,6,-9,-10,-4,i,1,1,0,
COc1cc(C(C)=O)ccc1OCC(O)CN1CCN(c2ccccc2)CC1 (centres undefined),16,-13,13,0,i,2,-2,1,
CC(C)(C)c1ccc(C(=O)NNC(=O)c2ccc(Cl)cc2)cc1,5,·,15,19,i,-6,5,0,
Cn1c(CNc2ccccc2)nc2ccccc21,-9,-8,·,-10,i,4,-4,0,
COC(=O)c1ccccc1S(=O)(=O)N(Cc1cc2cc3c(cc2[nH]c1=O)OCO3)C1CCCCC1,-3,·,·,-9,i,-5,·,·,
CC(C)c1ccc(NC(=S)NC2CC3C=CC2C3)cc1 (centres undefined),8,·,-74,22,i,4,6,0,
Cc1ccc(OC(C)C(=O)Nc2ccccc2C(=O)N2CCN(C)CC2)cc1 (centres undefined),-7,-8,·,-8,i,-6,-2,4,
Cc1ccc(C(=O)CSc2nnc(-c3cccnc3)n2N)cc1,-3,-4,17,26,i,2,-3,-4,
CCCCN=C1NC(=O)C(CC(=O)NCCc2ccc(OC)cc2)S1 (centres undefined),3,-11,-11,-6,i,5,-2,3,

# Of the compounds above, four contain a cyano group.
SMILES,eIF4H inh,UUG fidelity,HIV Env fusion,CSC inhib,Rce1 inh,PABP polyA inh,MT1-MMP act inh,MT1-MMP act inh RFP,others
N#C/C(=C/c1cccn1-c1cccc(C(=O)O)c1)c1ccc(Cl)cc1,80,·,10,11,i,34*,-3,-3,eIF4H inh retest=-8;PABP polyA inh retest=81*
N#C/C(=C\c1ccccc1)C(=O)NNS(=O)(=O)c1cccc([N+](=O)[O-])c1,·,-13,-6,·,·,·,2,1,
N#Cc1ccccc1NC(=O)CNc1cc(S(=O)(=O)N2CCOCC2)ccc1NCC1CCCO1 (centres undefined),·,-29,5,·,·,·,-4,3,
COCCCNC(=S)NCCCNc1nc2cc3c(cc2cc1C#N)OCO3,21,-20,·,-5,i,-24,-3,1,

# A portion of the library (hit frequency here may not be typical).
